UCH37 DUB inh: human UCH37 deubiquitinating enzyme inhibition; Q9Y5K5; purified proteasome/UCH37, Ub-AMC cleavage fluorescence; inhibition, % (concentration not given with the values); hit rate 0.33% among 330,000; AID 588478;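 active means mean of two replicates above 20%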;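 further: 0% = compound-free wells with enzyme and 100% = wells lacking proteasome; stock transfer was 100 nL into about 20 µL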
Target sequence (Q9Y5K5 whole entry, looked up): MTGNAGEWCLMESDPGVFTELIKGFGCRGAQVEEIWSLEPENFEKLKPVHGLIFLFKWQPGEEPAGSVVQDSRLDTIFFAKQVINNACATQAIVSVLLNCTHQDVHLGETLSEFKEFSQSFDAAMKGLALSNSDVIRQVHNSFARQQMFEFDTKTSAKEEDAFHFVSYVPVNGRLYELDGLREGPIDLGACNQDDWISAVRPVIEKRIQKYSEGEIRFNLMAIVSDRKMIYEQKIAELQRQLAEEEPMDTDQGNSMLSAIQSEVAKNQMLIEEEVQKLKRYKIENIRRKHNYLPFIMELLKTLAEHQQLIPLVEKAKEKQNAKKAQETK
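Material: Human UCH37 enzyme supplied as purified proteasome complex | Schedule: 30 min compound-proteasome preincubation then 25 min substrate reaction, room temperature | Detection: AMC fluorescence from Ub-AMC cleavage, excitation 355 nm, emission 460 nm | Benchmarks: Wells without proteasome as full block, compound-free enzyme plus substrate as uninhibited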
T cruzi repl: blocks replication of Trypanosoma cruzi | inhibition, % (test concentration not listed) | T. cruzi beta-gal in NIH3T3, luminescence, 90 h | AID 1885 | hit rate 1.4% among 300,000;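 active means mean inhibition across valid replicates above about 55%, limit read from the data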;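 further: signal also drops with host cell toxicity which is not excluded here; 0% = plate median of DMSO wells and 100% = zero luminescence signal; higher percent means less beta-gal luminescence so fewer parasites; stock transfer was 50 nL into about 50 µL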
Beta cell apopt: beta cell apoptosis inhibition | INS-1E cytokine-induced death, ATP luminescence, 48 h; percent of positive-control rescue, neutral wells zero | protection from apoptosis, % (no concentration beside the values) | hit rate 0.8% among 300,000 | AID 435005;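 active means all replicates at 75% or more, or half of them and the mean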;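 further: 0% = cytokine-treated negative control wells and 100% = positive control rescue; higher means more ATP so stronger rescue from cytokine killing; wells of about 40 µL received 100 nL stock; the first replicate is given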
AF4-AF9 inh: blocks AF4 peptide binding to human AF9 | AlphaScreen, biotin-AF4 peptide binding to FLAG-AF9 | inhibition, % at 10 µM | AID 651704 | hit rate 0.47% among 350,000 | P42568;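 active means every replicate reaching a set inhibition limit, whatever the replicate mean, cut at about 25% in these data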;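 further: 0% = plate neutral control median and 100% = total signal loss; the record names both 10 and 1 µM as test concentration; the first replicate is given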
Target sequence (P42568 whole entry, looked up): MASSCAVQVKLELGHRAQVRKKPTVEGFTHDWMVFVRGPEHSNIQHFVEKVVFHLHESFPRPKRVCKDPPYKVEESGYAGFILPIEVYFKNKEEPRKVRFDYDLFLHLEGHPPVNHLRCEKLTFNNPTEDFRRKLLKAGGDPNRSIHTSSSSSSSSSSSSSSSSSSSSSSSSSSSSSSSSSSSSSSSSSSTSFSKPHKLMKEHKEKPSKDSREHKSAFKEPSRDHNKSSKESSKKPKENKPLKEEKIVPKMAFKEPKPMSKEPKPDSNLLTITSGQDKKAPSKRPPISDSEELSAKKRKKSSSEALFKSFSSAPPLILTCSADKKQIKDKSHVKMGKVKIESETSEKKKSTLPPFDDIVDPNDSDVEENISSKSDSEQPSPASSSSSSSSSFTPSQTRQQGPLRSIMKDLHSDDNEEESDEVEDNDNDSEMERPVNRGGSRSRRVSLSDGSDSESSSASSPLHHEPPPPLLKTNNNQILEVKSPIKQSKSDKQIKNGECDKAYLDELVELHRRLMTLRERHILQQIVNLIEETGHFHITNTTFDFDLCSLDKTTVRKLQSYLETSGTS
E coli growth: inhibitors of Escherichia coli growth | OD600, 23 h; hits give low values | OD600 absorbance (no concentration beside the values) | hit rate 0.21% among 330,000;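 active means OD600 absorbance below the run mean of sample wells minus 3.6 SD, in any replicate, cut at about 0.56 in these data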;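 further: stock transfer was 300 nL into about 60 µL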
Bfl-1 A1 inh: inhibitors of the anti-apoptotic protein A1, read as caspase activation. MEF A1-2A-BIM cells, Caspase-Glo 3/7 luminescence, 3 h; percent of clofoctol response, vehicle zero. caspase activation, % (no concentration beside the values). hit rate 0.066% among 330,000;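 active means over half of replicate activation scores above 10%, or exactly half above 10 with the replicate mean above 10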;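 further: wells of about 30 µL received 50 nL stock; many hits fall short of the cut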
Ecoli rRNA inh: selective bacterial rRNA inhibition in E. coli; E. coli WT GFP vs humanized-ribosome RFP mutants, fluorescence, 24 h; hits give low values; DMSO median 0, no signal -100; GFP signal change (wild-type ribosome), % (test concentration not listed); hit rate 1.6% among 350,000; AID 720706;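 active means significant combined selectivity score with lowered wild-type GFP, culture density cut under 30%, mutant RFP and density less affected; inactive means any of these conditions unmet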; further: one replicate is shown; some compounds called inactive have numbers as strong as hits
FGF22 binding: binders of recombinant human FGF22 by thermal shift; Q9HCT0; AID 651658; hit rate 1.5% among 340,000; calls only at 9.99 µM; SYPRO orange fluorescence; percent of sucrose octasulfate shift, DMSO zero;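 active means melting point raised past a set limit in the mean and every replicate; three in four hits are not shown here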
Target sequence (Q9HCT0 whole entry, looked up): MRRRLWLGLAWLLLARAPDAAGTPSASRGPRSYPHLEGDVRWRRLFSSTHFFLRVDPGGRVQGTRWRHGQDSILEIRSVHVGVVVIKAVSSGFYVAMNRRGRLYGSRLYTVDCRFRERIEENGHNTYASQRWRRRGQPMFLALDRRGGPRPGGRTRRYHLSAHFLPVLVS
Ecoli rRNA inh OD600: also measured in Ecoli rRNA inh; calls as there; OD600 change, %; measured here: OD600 growth;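 optical density of the mix in the first replicate; 0 = DMSO median and -100 = no signal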
Ecoli rRNA inh RFP: second read-out of Ecoli rRNA inh, no call of its own (marks repeat the call); RFP signal change, %; measured here: RFP humanized mutant strains;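 first replicate; 0 = DMSO median and -100 = no signal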
Active calls of the source: *; i = inactive; . = not tested or not shown. This is a subset (hit frequency here may not be typical).

1: NS(=O)(=O)c1ccc(CNC(=O)c2cccnc2Cl)cc1
2: CCC(C(=O)N1CCN(S(C)(=O)=O)CC1)c1ccccc1 (stereo not given)
3: O=C(Nc1ccc(C(F)(F)F)cc1)c1ccc(NC(=O)C2CCCO2)cc1 (stereo not given)
4: CCOc1ccccc1NC(=O)c1cc(C(=O)c2cc(OC)ccc2O)coc1=N
5: Cc1ccc(C(=O)NN2C(=O)C3C4C=CC(C5CC45)C3C2=O)cc1 (stereo not given)
6: CCCOC(=O)NC1C(NC(=O)OCCC)N(C)C(=O)N1C (stereo not given)
7: O=C(NCCNc1ccccc1[N+](=O)[O-])c1cc(F)c(F)cc1Cl
8: COc1ccc(-n2cnnc2SCC(=O)N2CCN(c3ccccc3)CC2)cc1
screen / no. | 1 | 2 | 3 | 4 | 5 | 6 | 7 | 8
UCH37 DUB inh | -0.2 | 2.6 | -3.9 | -0.8 | 3.0 | 3.1 | 5.5 | 0.2
T cruzi repl | -7 | -13 | -1 | 13 | -4 | -14 | -4 | 1
Beta cell apopt | -7 | -3 | 5 | 0 | . | -9 | -2 | 0
AF4-AF9 inh | 0.0 | 1.9 | . | . | -0.6 | . | -4.0 | .
E coli growth | 0.65 | 0.75 | 0.7 | 0.7 | 0.66 | 0.69 | 0.67 | 0.73
Bfl-1 A1 inh | 0.1 | 1.4 | -0.7 | 0.9 | 0.4 | -0.2 | -0.3 | 0.3
Ecoli rRNA inh | 6 | 11 | . | . | 1 | . | 8 | .
Ecoli rRNA inh OD600 | 2 | -1 | . | . | -3 | . | 13 | .
Ecoli rRNA inh RFP | -1.1 | -5.6 | . | . | 0.0 | . | -0.8 | .
FGF22 binding | i | i | . | . | i | . | i | .

9: COc1ccc2c(c1)c(C(=O)CNc1nc(C)cs1)c(C)n2C
10: Cc1cc(C(=O)NP(=O)(N2CC(C)OC(C)C2)N2CC(C)OC(C)C2)c(C)n1C1CC1 (stereo not given)
11: CC(NC(=O)C(Cc1ccccc1)n1cccc1)c1ccccc1 (stereo not given)
12: COC(CNC(=O)Cc1c(C)nc2c(-c3ccccc3)c(C)nn2c1C)OC
13: COc1ccc(S(=O)(=O)N2CCN(C(=O)CCNC(=O)c3ccccc3Cl)CC2)cc1
14: N#CCc1nn(Cc2ccc(F)cc2)c(=O)c2ccccc12
15: C=CCSc1nnc(NC(=O)c2cccc(S(=O)(=O)N3CCOCC3)c2)s1
16: O=C(Nc1cccc(F)c1)NC1(C(=O)N2CCC(O)CC2)CCCCC1
screen / no. | 9 | 10 | 11 | 12 | 13 | 14 | 15 | 16
UCH37 DUB inh | 4.6 | 3.5 | 5.2 | 4.6 | 1.5 | 2.0 | 4.6 | -1.5
T cruzi repl | 21 | -1 | -5 | 1 | . | 7 | 18 | -10
Beta cell apopt | -1 | 1 | -1 | 0 | -3 | -3 | 4 | -2
AF4-AF9 inh | . | 0.9 | 4.0 | -1.1 | 1.9 | -3.3 | . | -0.3
E coli growth | 0.82 | 0.65 | 0.69 | 0.69 | 0.61 | 0.67 | 0.69 | 0.66
Bfl-1 A1 inh | 0.3 | 1.4 | 0.9 | 0.6 | -0.7 | 0.6 | 0.2 | -0.5
Ecoli rRNA inh | . | 20 | -8 | 19 | 5 | -5 | . | 0
Ecoli rRNA inh OD600 | . | 16 | -19 | 1 | -7 | -7 | . | 7
Ecoli rRNA inh RFP | . | 1.4 | -5.7 | 2.4 | 3.0 | -1.2 | . | 0.8
FGF22 binding | . | i | i | . | i | i | . | i

17: CN1CCC(=O)N([C@H](CSc2ccc(Br)cc2)Cc2ccccc2)CC1
18: CC(=O)c1c(C)[nH]c(C)c1C(C)=O
19: CN(C)c1nc(N)c2ncc(=S)[nH]c2n1
20: COCCN(Cc1cc2cc3c(cc2nc1Cl)OCO3)C(=O)c1ccc(C)cc1
21: COC(=O)c1cc(-n2cccc2)ccc1N1CCOCC1
22: CCOC(=O)Nc1ccc2c(c1)N(C(=O)CCN(CC)CC)c1ccccc1S2=O (stereo not given)
23: C=CCNCCCOc1ccc(Cl)cc1Br
24: O=C(c1ccco1)N1CCN(CC(=O)N2c3ccccc3CCc3ccccc32)CC1
screen / no. | 17 | 18 | 19 | 20 | 21 | 22 | 23 | 24
UCH37 DUB inh | 5.3 | 0.8 | -1.9 | 2.4 | 0.1 | 5.1 | -0.1 | 4.6
T cruzi repl | 1 | -12 | -10 | -4 | 8 | -13 | -2 | -8
Beta cell apopt | -6 | 0 | . | 7 | -5 | . | -6 | -4
AF4-AF9 inh | -2.4 | . | -1.6 | -3.5 | 5.1 | -1.3 | 3.0 | .
E coli growth | . | 0.71 | 0.66 | 0.73 | 0.7 | 0.65 | 0.64 | 0.69
Bfl-1 A1 inh | 0.8 | -0.2 | -0.2 | -0.6 | -0.1 | -0.1 | 0.8 | 0.4
Ecoli rRNA inh | 0 | . | 2 | 0 | 1 | -9 | -1 | .
Ecoli rRNA inh OD600 | -11 | . | 7 | -6 | 4 | 2 | 1 | .
Ecoli rRNA inh RFP | 6.4 | . | -0.7 | -1.4 | 0.6 | -1.9 | -1.9 | .
FGF22 binding | i | . | . | i | i | i | i | .

25: N#C/C(=C/c1ccc(O)c([N+](=O)[O-])c1)C(=O)Nc1ccccc1
26: O=C(O)Cn1c(SCc2cccc3ccccc23)nc2ccccc21
27: N#CC1(NC(=O)COC(=O)C2=COCCO2)CCCCC1
28: COc1cccc(-n2cc3c(c2-c2ccccc2)c(=O)n(C)c(=O)n3C)c1
29: COc1ccc(N=C2SC(C(N)=O)CC(=O)N2Cc2ccc3c(c2)OCO3)cc1 (stereo not given)
30: COc1ccc(CNC(=O)CN(C)S(=O)(=O)c2ccc3c(c2)OCCO3)cc1OC
31: CCCCn1c(N)c(N(CCOC)C(=O)CN2C(=O)c3ccccc3C2=O)c(=O)[nH]c1=O
32: CCCc1cc(C(=O)Nc2ccc(OC)cc2[N+](=O)[O-])cs1
screen / no. | 25 | 26 | 27 | 28 | 29 | 30 | 31 | 32
UCH37 DUB inh | 19 | 2.8 | . | -41 | 3.4 | 2.3 | 1.0 | -1.8
T cruzi repl | -14 | -12 | . | 3 | -8 | . | 3 | 17
Beta cell apopt | 16 | 2 | -7 | -6 | -5 | -2 | -8 | .
AF4-AF9 inh | -0.3 | . | -0.8 | . | -5.4 | 2.6 | -0.9 | 1.8
E coli growth | 0.68 | 0.74 | . | 0.78 | 0.61 | 0.72 | 0.73 | 0.69
Bfl-1 A1 inh | -8.3 | -0.7 | 2.1 | 0.9 | 0.2 | -0.5 | -0.5 | .
Ecoli rRNA inh | -15 | . | . | . | 13 | -2 | 10 | 8
Ecoli rRNA inh OD600 | -4 | . | . | . | -7 | 2 | 19 | 27
Ecoli rRNA inh RFP | 5.1 | . | . | . | 3.6 | -1.1 | -0.9 | -0.3
FGF22 binding | i | . | i | . | i | i | i | i

Rewritten tab-delimited: part of the list above
#	compound	UCH37 DUB inh	T cruzi repl	Beta cell apopt	AF4-AF9 inh	E coli growth	Bfl-1 A1 inh	Ecoli rRNA inh	Ecoli rRNA inh OD600	Ecoli rRNA inh RFP	FGF22 binding
23	C=CCNCCCOc1ccc(Cl)cc1Br	-0.1	-2	-6	3.0	0.64	0.8	-1	1	-1.9	i
24	O=C(c1ccco1)N1CCN(CC(=O)N2c3ccccc3CCc3ccccc32)CC1	4.6	-8	-4	.	0.69	0.4	.	.	.	.
25	N#C/C(=C/c1ccc(O)c([N+](=O)[O-])c1)C(=O)Nc1ccccc1	19	-14	16	-0.3	0.68	-8.3	-15	-4	5.1	i
26	O=C(O)Cn1c(SCc2cccc3ccccc23)nc2ccccc21	2.8	-12	2	.	0.74	-0.7	.	.	.	.
27	N#CC1(NC(=O)COC(=O)C2=COCCO2)CCCCC1	.	.	-7	-0.8	.	2.1	.	.	.	i
28	COc1cccc(-n2cc3c(c2-c2ccccc2)c(=O)n(C)c(=O)n3C)c1	-41	3	-6	.	0.78	0.9	.	.	.	.
29	COc1ccc(N=C2SC(C(N)=O)CC(=O)N2Cc2ccc3c(c2)OCO3)cc1 (stereo not given)	3.4	-8	-5	-5.4	0.61	0.2	13	-7	3.6	i
30	COc1ccc(CNC(=O)CN(C)S(=O)(=O)c2ccc3c(c2)OCCO3)cc1OC	2.3	.	-2	2.6	0.72	-0.5	-2	2	-1.1	i

Next structures follow.
33: O=C(N=c1ccn(-c2nc3ccccc3nc2NS(=O)(=O)c2ccccc2)cc1)c1cccs1
34: CC(C)CN(C(=O)COc1ccc([N+](=O)[O-])cc1)c1c(N)n(CC(C)C)c(=O)[nH]c1=O
35: CC(=O)c1cccc(OCC(=O)N(CCC2=CCCCC2)c2c(N)n(Cc3ccccc3)c(=O)[nH]c2=O)c1
36: CC(C)CC(=O)NCC(C)NC(=O)CC(C)C (stereo not given)
37: CN1CCN(C(=O)CN2C(=O)COc3ccc(S(=O)(=O)N4CCOCC4)cc32)CC1
38: CCN(CC(=O)Nc1ccc2c(c1)OCCO2)C(=O)c1ccc(CS(C)(=O)=O)cc1
39: COc1ccccc1NC(=S)Nc1ccccc1F
40: Cc1nc(NCCc2ccccc2)c2nnn(Cc3ccccc3Cl)c2n1
screen / no. | 33 | 34 | 35 | 36 | 37 | 38 | 39 | 40
UCH37 DUB inh | 1.0 | 7.7 | -9.7 | 2.2 | -1.1 | -0.7 | 4.7 | 1.7
T cruzi repl | 14 | . | . | 7 | -20 | . | -6 | 20
Beta cell apopt | -4 | -9 | . | -7 | . | 6 | 3 | 4
AF4-AF9 inh | -1.6 | 0.2 | -3.5 | . | -1.1 | 2.2 | . | -8.6
E coli growth | 0.69 | 0.69 | 0.72 | 0.7 | 0.72 | 0.63 | 0.72 | 0.69
Bfl-1 A1 inh | 0.4 | 0.3 | . | 0.4 | . | -3.6 | 1.0 | -0.6
Ecoli rRNA inh | 8 | 6 | 3 | . | 10 | 21 | . | -4
Ecoli rRNA inh OD600 | 16 | 19 | 8 | . | 9 | 13 | . | 6
Ecoli rRNA inh RFP | 3.2 | -1.2 | -1.3 | . | 1.5 | 1.8 | . | -2.2
FGF22 binding | i | i | i | . | i | i | . | i

41: COCCNC(=O)COc1cccc2c1OC(C)(C)C2
42: CCOC(=O)NC(=O)c1cn(C(CC)CO)c(=O)[nH]c1=O (stereo not given)
43: Cc1ccccc1OCc1nnc2c3cnn(C)c3ncn12
44: CCOC(=O)C1(C(F)(F)F)N=C(c2cccnc2)OC(N2CCCCC2)=N1 (stereo not given)
45: COc1ccccc1N1CCN(C(=S)Nc2ccc(S(=O)(=O)N3CCOCC3)cc2)CC1
46: Cc1ccc(CNS(=O)(=O)c2ccc3oc(C(=O)O)c(C)c3c2)cc1
screen / no. | 41 | 42 | 43 | 44 | 45 | 46
UCH37 DUB inh | -1.7 | 4.6 | 2.4 | 5.2 | 4.2 | 4.3
T cruzi repl | -3 | -14 | -8 | 9 | -18 | -9
Beta cell apopt | -4 | -1 | -1 | -8 | 2 | -5
AF4-AF9 inh | -0.7 | 0.5 | . | . | 3.8 | .
E coli growth | 0.66 | 0.71 | 0.68 | 0.7 | 0.67 | 0.68
Bfl-1 A1 inh | 1.1 | 0.1 | -3.0 | -0.5 | 0.5 | 0.3
Ecoli rRNA inh | 16 | 6 | . | . | -21 | .
Ecoli rRNA inh OD600 | 10 | 11 | . | . | -32 | .
Ecoli rRNA inh RFP | 3.5 | -0.5 | . | . | -1.4 | .
FGF22 binding | i | i | . | . | . | .
